KCNQ2 enhance = potentiators of rat KCNQ2 potassium channel. B-score at 10 µM. CHO-K1 KCNQ2, FluxOR thallium flux fluorescence; stronger effect = higher value. O88943. 310,000 tested, 0.54% active;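 active = fluorescence ratio B-score at least 3 SD of library B-scores, with initial fluorescence B-score within 3 SD, cut at about 5.3 in these data; same plate scores as AID 2156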;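 also: B-score of peak minus minimum over baseline fluorescence ratio after K+ and Tl+ stimulus; positive B-score means potentiation of KCNQ2 with more thallium influx and brighter signal; only the inactives scoring about 0 or higher are listed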
Target sequence (O88943 whole entry, looked up): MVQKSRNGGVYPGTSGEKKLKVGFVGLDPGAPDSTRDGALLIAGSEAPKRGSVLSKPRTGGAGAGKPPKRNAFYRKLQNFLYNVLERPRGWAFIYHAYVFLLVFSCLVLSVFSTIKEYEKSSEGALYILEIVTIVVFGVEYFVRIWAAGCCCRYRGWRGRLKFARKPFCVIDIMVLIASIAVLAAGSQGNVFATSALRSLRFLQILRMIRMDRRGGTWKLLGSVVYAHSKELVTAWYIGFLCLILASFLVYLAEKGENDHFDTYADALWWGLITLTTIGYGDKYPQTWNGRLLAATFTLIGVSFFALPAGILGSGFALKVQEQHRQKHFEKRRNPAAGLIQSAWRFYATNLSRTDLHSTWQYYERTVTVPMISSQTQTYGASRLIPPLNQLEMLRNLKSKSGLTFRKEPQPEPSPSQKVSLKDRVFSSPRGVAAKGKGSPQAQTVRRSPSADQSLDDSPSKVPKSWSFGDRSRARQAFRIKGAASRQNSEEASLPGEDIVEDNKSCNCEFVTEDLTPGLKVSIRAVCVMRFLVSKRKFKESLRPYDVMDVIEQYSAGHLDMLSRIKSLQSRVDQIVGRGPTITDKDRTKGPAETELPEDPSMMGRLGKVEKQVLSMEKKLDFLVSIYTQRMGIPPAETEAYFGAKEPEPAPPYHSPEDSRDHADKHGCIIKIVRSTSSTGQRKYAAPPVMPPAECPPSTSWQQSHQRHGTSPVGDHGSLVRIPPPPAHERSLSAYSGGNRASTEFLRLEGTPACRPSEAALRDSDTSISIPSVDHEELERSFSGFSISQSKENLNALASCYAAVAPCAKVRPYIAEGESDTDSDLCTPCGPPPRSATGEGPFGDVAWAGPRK
KCNQ2 enhance baseline = further read-out of KCNQ2 enhance, marked with its call; B-score; compound at 10 µM; measured here: initial fluorescence intensity artifact check;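 brightness before thallium and not channel activity; 0 = typical well and far values either way flag optical interference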
The depositor's hits bear a star. A portion of the library; the hit share may differ from the screen's.

KCNQ2 enhance | KCNQ2 enhance baseline | Compound
0.01 | 1.48 | CCOC(=O)C(CCCCC(NC(C)=O)(C(=O)OCC)C(=O)OCC)(NC(C)=O)C(=O)OCC
3.29 | 0.49 | O=C1CC(N2CCSCC2)C(=O)N1c1ccc(Br)cc1 (stereo not drawn)
0.34 | 0.19 | O=C(c1cn(CC2CCCCC2)nn1)N1CCN(c2ccc(F)cc2)CC1
1.02 | 0.91 | N#Cc1nc(-c2ccco2)oc1NCc1ccco1
0.5 | -0.4 | Cc1cc(CNC(=O)C2CCC(=O)N(CCc3cccc(F)c3)C2)nn1C (stereo not drawn)
0.1 | -1.66 | CCOC(=O)C(=O)Nc1sc(C(=O)N(CC)CC)c(C)c1C#N
0.17 | -0.22 | O=C(NCCCNC(=O)c1cnccn1)c1ccc(Cl)c(Cl)c1
2.15 | -2.07 | O=C(CN1CCN(c2ncccn2)CC1)N1CCc2ccccc21
1.68 | -1.35 | Cn1c(-c2ccc[nH]c2=O)nc2cc(Cl)ccc21
0.95 | 0.11 | CC(C)C(=O)Nc1ccc2oc(-c3cc(F)c(F)cc3Cl)nc2c1
0.28 | -1.16 | CCOC(=O)C1CCN(C(=O)CCNS(=O)(=O)c2cc(Br)cnc2N)CC1
0.51 | -0.76 | C=CCNS(=O)(=O)c1ccc(OCC(=O)OCC)cc1
0.05 | 0.03 | COc1cc2c(cc1OC)/C(=C/C(=O)c1ccc(F)cc1)NCC2
0.24 | -0.73 | Cc1ccccc1OCc1n[nH]c(=S)n1Cc1ccccc1
0.79 | -0.72 | CCCc1cc(=O)[nH]c(SCC(=O)N2CCN(S(=O)(=O)c3ccc(Cl)cc3)CC2)n1

3 compounds from above, ordered by heavy-atom count, low to high:
KCNQ2 enhance | KCNQ2 enhance baseline | Compound
0.51 | -0.76 | C=CCNS(=O)(=O)c1ccc(OCC(=O)OCC)cc1
0.95 | 0.11 | CC(C)C(=O)Nc1ccc2oc(-c3cc(F)c(F)cc3Cl)nc2c1
0.28 | -1.16 | CCOC(=O)C1CCN(C(=O)CCNS(=O)(=O)c2cc(Br)cnc2N)CC1

(continued)
KCNQ2 enhance | KCNQ2 enhance baseline | Compound
0.49 | -0.41 | Cc1nnsc1Sc1cccc(C(F)(F)F)c1
1.4 | -0.78 | Cc1ccc(C(=O)NC(C)c2ccc(S(N)(=O)=O)cc2)s1 (stereo not drawn)
0.41 | 0.54 | N#Cc1c(/N=C/c2cccs2)sc2c1CCC2
0.75 | 1.39 | COc1ccccc1N(C(C)=O)c1nc(C)cc(C)c1C#N
0.14 | -2.01 | CC(C(=O)c1ccc(-c2ccccc2)cc1)[n+]1cccc(Br)c1 (stereo not drawn)
0.82 | -0.65 | Cc1ccc(-n2nnnc2SCC(=O)c2c(N)n(CC(C)C)c(=O)n(C)c2=O)cc1
0.29 | -0.19 | CC(=O)Nc1cccc2c1C(=O)N(c1ccccc1C)C2=O
0.03 | -1.26 | CSc1nc2c(c(=O)[nH]c(=O)n2C)n1Cc1ccccc1
2.51 | -0.02 | C=CCc1ccc(OCCOc2cccc(/C=N/n3cnnc3)c2)c(OC)c1
1.16 | 0.14 | O=C(COc1cccc2ccccc12)NNC(=O)c1cnccn1
0.12 | -0.18 | O=C(NCc1ccncc1)c1ccc(S(=O)(=O)Nc2ccccc2)cc1
0.05 | -1.67 | Cc1c(C)c2c(OCC(=O)N3CCC(C(=O)O)CC3)cc3c(c2oc1=O)CCC(C)(C)O3
0.08 | -1.44 | CCOC(=O)c1c(C)n(CCO)c2ccc(O)cc12
0.02 | -0.54 | CCn1c(SCC(=O)NCC2CCCO2)nc2c(c1=O)SC(C)C2 (stereo not drawn)
0.24 | 2.77 | Cc1ccc(NC(=O)c2sc3nc(N)c(C#N)cc3c2N)cc1
0.47 | 1.23 | Cc1cc2oc(=O)cc(CN3CCCCC3C)c2cc1C (stereo not drawn)
0.39 | -1.09 | Cn1nnnc1SCC(=O)Nc1ccc(Cl)cn1
0.04 | -0.38 | CC[n+]1c(C)sc2c(C)cc(C)cc21
1.64 | 0.89 | O=C(CCC1N=C2c3ccccc3N=C(SCC(=O)NCC3CCCO3)N2C1=O)NCc1ccc(F)cc1 (stereo not drawn)
0.02 | 1.67 | O=C(Nc1ccc([N+](=O)[O-])cc1)c1cccc(S(=O)(=O)Nc2ccccn2)c1
0.36 | -0.11 | COCC(C)N1CCC(n2nccc2NC(=O)CCCc2ccccc2)CC1 (stereo not drawn)
0.39 | 0.65 | C/C(=N\OC(=O)c1ccc(Cl)c(Cl)c1)c1sc(C)nc1C
2.2 | 1.16 | Cc1[nH]c2ccccc2c1C(=O)C(=O)N1CCN(c2ccccc2F)CC1
1.43 | 0.25 | COc1cc(/C=N/n2nnnc2N)cc(Cl)c1OC
1.96 | 0.65 | O=C(CNC(=O)Cc1ccccc1)N=Nc1c(O)[nH]c2ccccc12
1.46 | -0.17 | CCCCn1c(N)c(N(CC(C)C)C(=O)c2ccc(COc3ccccc3)o2)c(=O)[nH]c1=O
16.3* | 0.33* | Cc1cccc(NC(=O)C(=O)NNC(=O)c2ccc(C(C)(C)C)cc2)c1
0.19 | -1.73 | COc1cccc(CC2(CO)CCN(Cc3cccn3-c3cccnc3)CC2)c1
0.61 | -0.04 | COc1cccc(C(=O)Nc2cc3c(cc2N2CCOCC2)n(C)c(=O)n3C)c1
1.63 | -0.62 | Cn1nc(C(F)(F)F)c2cc(C(=O)NC3CC3)sc21
0.82 | -0.01 | CN(Cc1cccnc1)Cc1cn(C)nc1-c1ccc(Oc2ccccc2)cc1
1.05 | -1.51 | COc1ccc2c(C)cc(=O)[nH]c2c1
0.03 | -1.01 | Cc1ccc(NC(=O)CCn2c(=S)oc3ccccc32)cc1
0.29 | -0.04 | COc1ccc(N(CC(=O)NCc2ccccc2OC)S(=O)(=O)c2ccc(C)cc2)cc1Cl
0.03 | 1.91 | CC(=O)Nc1ccc(NC(=O)CC2Nc3cccc4cccc(c34)NC2=O)cc1 (stereo not drawn)
0.57 | 0.68 | Cc1nc2c(Cl)cc(Cl)cc2[nH]1
1.15 | 0.16 | COc1cccc(CC(=O)NC2CCCN(Cc3ccccc3F)C2)c1 (stereo not drawn)
1.07 | 0.43 | OC1CCN(Cc2cccc3ccccc23)CC1
0.35 | 1.21 | Cc1ccccc1CC(=O)NCc1cccnc1
1.4 | -1.27 | CCCCC(=O)Nc1cccc(-c2cn3ccccc3n2)c1
3.56 | -0.99 | CC(C)CC(=O)NC(=S)Nc1nc(-c2ccc(Cl)cc2)cs1
0.09 | 0.69 | O=C(CSCCc1ccccn1)Nc1cccnc1Cl
0.13 | 1.72 | Cc1cc(NC(=O)c2cc(-c3ccco3)on2)nn1Cc1ccc(Cl)cc1
0.96 | 0.01 | COC(CNC(=O)c1ccc(N2CCC3(CC2)OCCO3)c([N+](=O)[O-])c1)OC
1.08 | -0.02 | CCN(CC)CCN(C(=O)/C=C/c1cccs1)c1nc2ccc(Cl)cc2s1
0.01 | -2.17 | COc1ccc(C(=O)NCc2ccccc2OC)c(OC)c1
0.61 | -2.38 | COc1ccccc1-n1cnnc1SCC(=O)c1cc(C)n(Cc2cccs2)c1C
2.43 | 1.51 | O=C(NCc1cccnc1)c1nc(-c2cccs2)no1
0.23 | -0.01 | CC1CN(C(=O)c2ccc(NS(=O)(=O)c3cccc(Cl)c3)cc2)CC(C)O1 (stereo not drawn)
0.06 | 1.34 | CCN1C(=O)c2cccc3c(NC(=O)c4ccc(OC)c(OC)c4)ccc1c23
2.01 | -2.26 | COc1ccc(C(C(=O)NC2CCCC2)N(Cc2cccs2)C(=O)c2ccn[nH]2)cc1OC (stereo not drawn)
0.57 | -3.82 | CCCCC(=O)N=c1sc2cc([N+](=O)[O-])ccc2n1C
2.29 | 1.06 | O=C(NCc1ccc(C(F)(F)F)cc1)C1CC(c2ccc(C(F)(F)F)cc2)=NO1 (stereo not drawn)
2.39 | -1.61 | O=C(O)c1ccc(NC(=O)c2cn(-c3ccccc3)nc2-c2cccc(Cl)c2)cc1
0.49 | 0.81 | O=C(CN1CCCC1)NC(=O)NC1CCCC1
1.72 | 3.32 | Cc1ccc(S(=O)(=O)N2CCN(CC(=O)N(CC(C)C)c3c(N)n(CC(C)C)c(=O)[nH]c3=O)CC2)c(C)c1
0.43 | 0.01 | Cc1cccc(Nc2nnc(SCC(=O)Nc3ccccc3[N+](=O)[O-])s2)c1
0.56 | -0.04 | Cn1c(NNC(=O)C2CCCCC2)cc(=O)n(C)c1=O
0.93 | -1.14 | Cc1ccc(N2C(=O)C(Cc3ccc(O)cc3)NC2=S)cc1C (stereo not drawn)
0.87 | 0.59 | Cc1c(Nc2ccc(C=O)cc2)c(=O)n(-c2ccccc2)n1C

Of the compounds above, three contain bromine.
KCNQ2 enhance | KCNQ2 enhance baseline | Compound
3.29 | 0.49 | O=C1CC(N2CCSCC2)C(=O)N1c1ccc(Br)cc1 (stereo not drawn)
0.28 | -1.16 | CCOC(=O)C1CCN(C(=O)CCNS(=O)(=O)c2cc(Br)cnc2N)CC1
0.14 | -2.01 | CC(C(=O)c1ccc(-c2ccccc2)cc1)[n+]1cccc(Br)c1 (stereo not drawn)

(further entries)
KCNQ2 enhance | KCNQ2 enhance baseline | Compound
0.44 | -1.34 | O=C(Nc1ccccc1)c1ccc(C(=O)Nc2ccccc2)nc1
0.02 | -0.66 | CCCCOc1ccc(-c2cn3ccccc3n2)cc1[N+](=O)[O-]
0.25 | -1.36 | COc1cc(C)c(Cl)cc1S(=O)(=O)N1CCSC1
1.42 | 0.39 | COc1ccc(C)cc1NC(=O)Nc1ccccc1
0.39 | -0.16 | CN(CCO)c1nc(NCc2ccccc2)c2cnn(C)c2n1
0.28 | -0.47 | COc1ccc(Cc2nnc(SCc3nc4ccccc4c(=O)[nH]3)n2C)cc1
0.4 | 0.63 | NC(=S)Nc1ccc(C(F)(F)F)cc1Cl
0.53 | 0.02 | O=C(CCNC(=O)c1ccc([N+](=O)[O-])cc1)NNC(=O)c1ccncc1
0.08 | -1.58 | CCCc1nn(C)c(C(=O)Nc2ccc(Cl)cc2)c1Cl
0.8 | -1 | COc1ccc(CNC(=O)c2ccc(-c3ccccc3)cc2)cc1OC
1.11 | -1.38 | NS(=O)(=O)c1ccc(NC(=S)NC(=O)C2CCCC2)cc1
0.51 | 0.23 | O=C(CCCC(=O)Nc1ccc(Br)cc1)N/N=C/c1ccccc1
1.66 | 0.26 | COc1ccc2c(C(=O)CN3CCC(C)CC3)c[nH]c2c1
0.86 | -0.01 | O=C(NCc1ccco1)/C(=C\c1cccs1)NC(=O)c1ccco1
0.96 | 0.6 | CCOc1ccc(NC(=NCc2ccc3c(c2)OCO3)SC2CC(=O)N(c3ccccc3)C2=O)cc1 (stereo not drawn)

Two entries from above, set out differently.
SMILES | KCNQ2 enhance | KCNQ2 enhance baseline
COc1ccc(Cc2nnc(SCc3nc4ccccc4c(=O)[nH]3)n2C)cc1 | 0.28 | -0.47
NC(=S)Nc1ccc(C(F)(F)F)cc1Cl | 0.4 | 0.63

More results follow.
KCNQ2 enhance | KCNQ2 enhance baseline | Compound
0.54 | 3.6 | Cc1cc(Cl)cc(Cl)c1OCCCCN(C)C
0.74 | -0.33 | COc1cccc(-n2nnnc2SCC(=O)Nc2ccc(OC)cc2OC)c1
0.56 | -0.68 | C/C(=N\Nc1cccc(Cl)c1)c1ccncc1
0.83 | -1.61 | Cn1ccc(=S)c2ccccc21
1.11 | 0.32 | CC(C(=O)OCC(=O)Nc1cccc(S(=O)(=O)N(C)C)c1)N1C(=O)c2ccccc2C1=O (stereo not drawn)
0.02 | -1.98 | COC(=O)c1c(NC(=O)CN2CCC(C(N)=O)CC2)c2c(C)cccc2n1C
0.11 | 1.53 | COc1ccc(NC(=O)OCCN2CCN(Cc3ccccc3)CCC2=O)cc1
0.63 | 1.01 | O=C(CC1Nc2ccccc2NC1=O)NCC1COc2ccccc2O1 (stereo not drawn)
0.65 | -0.8 | CN(CC(=O)NCc1ccncc1)S(=O)(=O)c1ccc(Cl)cc1
2.2 | 0 | Cc1ccccc1NS(=O)(=O)c1ccc2c(c1)oc(=O)n2C
1.38 | 0.2 | COC(=O)c1cc2cc(Cl)ccc2nc1SC
0.91 | -1.28 | Cc1oc(-c2ccccc2Cl)nc1CSc1nc2c(c(=O)[nH]1)CCCC2
0.81 | -0.08 | CCOC(=O)N1CCC(N(CCN(C)C)C(=S)Nc2cccc(C)c2)CC1
1.13 | -0.79 | C/C=C(/C)C(=O)O[C@@H]1c2cc3c(c(OC)c2-c2c(cc(OC)c(OC)c2OC)[C@@H](OC(C)=O)[C@@H](C)[C@H]1C)OCO3
1.36 | -0.01 | CC(=O)Nc1ccc(S(=O)(=O)NCc2csc(-c3cccnc3)n2)cc1
0.82 | 0.8 | COc1cc(C(=O)NCC(=O)OCc2cc(=O)oc3c(C)c(C)ccc23)cc(OC)c1OC
0.3 | 0.86 | Cn1c(=O)n(C)c2cc([N+](=O)[O-])c(N3CCN(S(C)(=O)=O)CC3)cc21
0.27 | -0.14 | CCn1cc(C(=O)O)c(=O)c2cc(F)c(N3CCN(C(=S)NC(=O)c4cccc(F)c4)CC3)cc21
0.25 | 0.43 | OC(CN1CC=C(/C=C/c2ccc(Br)cc2)CC1)c1ccccc1 (stereo not drawn)
0.28 | -0.05 | OCC(O)CNC(=S)NC1CCCCC1 (stereo not drawn)
0.78 | 1.45 | N/C(=N\N=C\c1ccc(Br)o1)c1nonc1N
0.98 | -1.72 | CS(=O)(=O)N(CC(=O)NC1CCCCC1)c1cccc(F)c1
1.09 | -1.46 | C/C(=N/NC(=O)CSc1nc2ccccc2n1C)c1ccco1
0.47 | 2.64 | COC(=O)C1CSc2[nH]c(=O)sc2C1c1ccc(O)c(OC)c1 (stereo not drawn)
0.73 | 2.37 | COC(=O)Cc1nnc(Nc2cccc(C)c2)c2ccccc12
0.75 | 0.02 | Cc1ccc(C(=O)C2=C(O)C(=O)N(c3ncccn3)C2c2ccccc2F)o1 (stereo not drawn)
0.85 | -1.85 | CCCCCCCCCCCCN1C/C(=C\C(=O)OCC)c2cc(C(F)(F)F)ccc2S1(=O)=O
1.2 | 0.2 | CCCS(=O)(=O)N1CCN(c2cc3c(cc2[N+](=O)[O-])n(C)c(=O)n3C)CC1
1.09 | 0.8 | CSc1nnc(-c2sc3cc(C(F)(F)F)cnc3c2-c2ccccn2)n1C
